Source: PubChem BioAssay
RE007 growth inh = qHTS Assay for Inhibitors of the HIV-1 protein Vpr; S. pombe RE007 Vpr strain, BacTiter-Glo ATP luminescence, 24 h; control for the full effect not named in the record; Potency, µM (highest dose often 92.2 µM), without a hit: at the top dose activity change, negative = less growth; actives 0.21% (n = 360,000); active = well fitted falling curve with a large enough effect; inconclusive = small, poorly fitted or top-dose-only effect; inactive = no such curve, though single readings can be large or run the other way;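 note: nearly all actives have a fitted effect of over 50% in size; the assay follows cell death caused by Vpr and the record does not say whether a fall means rescue or toxicity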
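Fission yeast strain RE007, carrying one chromosomally integrated HIV-1 vpr copy, was seeded at OD 0.01 in PMG+AL medium with 23 nL pinned compound. After 24 h at 30 °C and 99% humidity, viability was read by BacTiter-Glo luminescence.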
2A StopGo = High Throughput Screening for Foot and Mouth Disease Virus Antivirals; Potency, µM (titrated, usually from 57.9 µM), inactives show at the top dose signal change, negative = less light; actives 1.2% (n = 410,000); human cells with a luciferase reporter of 2A StopGo recoding; control for the full effect not named in the record; active = well fitted falling curve with a large enough effect; inconclusive = small, poorly fitted or top-dose-only effect; inactive = no such curve, though single readings can be large or run the other way; tested in HEK293T cells; note: nearly all actives have a fitted effect of over 45% in size; luciferase light after 4 h
The depositor's hits bear a star; ? = inconclusive; [ ] = remark or other dose. % is set by controls: 0 for no effect and ±100 for the full control effect; potency is the fitted concentration of half-maximal effect. These rows are one share of the data. The share of hits here may be higher or lower than overall.

Under each structure – 2A StopGo | RE007 growth inh
C[C@@H]1CCCCO[C@@H](CN(C)S(=O)(=O)c2cn(C)cn2)[C@@H](C)CN([C@H](C)CO)C(=O)c2cc(NC(=O)Nc3ccc(C(F)(F)F)cc3)ccc2O1
 : -25% | 4%
CC(C)C[C@H]1CN(CCCC[C@@H]2CNC(=O)C(=O)N2Cc2ccccc2)C(=O)C(=O)N1CCc1ccccc1
 : -4% | 3%
O=C1Nc2ccccc2-n2nnnc2C1N1CCN(CCN2CCOCC2)CC1 (configuration not stated)
 : -5% | 11%
O=c1[nH]c2ccccc2n1C1CCN(C(CCc2ccccc2)c2nnnn2C2CCCCC2)CC1 (configuration not stated)
 : 28µM* | 0%
CCCCN(C=O)c1c(CC)nc2ccc(C(=O)N(CC)CCN(C)C)cn12
 : -17% | -6%
CCN(CC)c1ncnc2c1ncn2[C@H]1CN(Cc2ccc(-c3ccccc3)cc2)C[C@@H](CO)O1
 : ? | 26%
CC(C)CCNC(=O)c1c(CSc2ccc(Cl)cc2)noc1C(=O)NCc1ccccc1
 : -13% | 0%
CC(C)C[C@H]1CN(CCCC[C@@H]2CNC(=O)C(=O)N2CC2CCCCC2)C(=O)C(=O)N1Cc1ccccc1
 : 41%[activator] | -4%
Cc1nc2c(OCCOc3ccc(F)cc3)cccn2c1N(C)C(=O)CCC1CCCC1
 : ? | -10%[18.4 µM]
O=C(OCC(=O)c1c[nH]c2ccccc12)c1ccc(OC(F)F)cc1
 : -13% | -6%
COc1ccc(NC(=O)c2cc(-c3cc(Cl)ccc3OC)n[nH]2)c(C)c1
 : -12% | 0%
Cc1ccc2nc(-c3ccccc3)c(Cc3cccc(F)c3)n2c1
 : -9% | ?
CN(C)C(=O)c1ccc(NC(=O)c2cccc(S(=O)(=O)N3CCN(Cc4ccccc4)CC3)c2)cc1
 : ? | -1%
COc1ccc(OC)c(-c2nn(-c3ccccc3)cc2C(=O)NCC2CCCO2)c1 (configuration not stated)
 : 1% | -15%
Cc1ccc(S(=O)(=O)Nc2c(C)n(C)n(-c3ccccc3)c2=O)cc1C(=O)OC(C)C(=O)c1ccccc1 (configuration not stated)
 : 20% | 7%
CCCCCCCCN1C(=O)[C@H](CC(=O)NCc2ccccc2)C[C@@]2(C(=O)OC)CCCCC=C12
 : -25% | 3%
COC(=O)C[C@H]1C=C[C@H](NC(=O)c2cccc(F)c2)[C@@H](CO)O1
 : -17% | 11%
COC(=O)[C@]12CCCCC=C1N(Cc1cccc3ccccc13)C(=O)[C@H](CC(=O)N1CCN(C(=O)C3CC3)CC1)C2
 : -19% | -11%
CC(C)Oc1ccc(CN2CCC2(C)C(=O)Nc2cccc3cccnc23)cc1 (configuration not stated)
 : -25% | 7%
O=C1CC2(CCOCC2)Oc2ccc3ccccc3c21
 : 5% | -4%
O=C(C(=O)N1CCC(Cc2ccccc2)CC1)c1ccccc1Br
 : -10% | -6%
CCOc1ccc(S(=O)(=O)NC2CCCCC2C)cc1 (configuration not stated)
 : 29% | 15%
CCOC(=O)[C@@H]1[C@H]2COc3ccc(Br)cc3[C@@H]2N2C(=O)N(c3ccc(Cl)cc3)C(=O)[C@]12C
 : -9% | -2%
CC(=O)N1CCC(C(=O)N2c3ccccc3N=C(c3ccc(C(F)(F)F)cc3)C2C(=O)NC(C)(C)C)CC1 (configuration not stated)
 : -10% | 7%
O=C1[C@H](Cc2ccccc2)NCC=CC[C@H](c2ccco2)N1Cc1ccccc1
 : 0% | -12%
CC(C)[C@@H]1Cc2[nH]c(=O)[nH]c(=O)c2[C@H](c2ccc(F)cc2)O1
 : 0% | -7%
Cc1ccc(S(=O)(=O)N2C[C@H]3n4c(=O)ccc(=O)n4C[C@H](OC(=O)NCc4ccccc4F)[C@@]3(O)C2)cc1
 : 20µM* | 3%
C[C@H](NC(=O)c1ncn2c1C(=O)NC[C@@H]2C)C(=O)OC(C)(C)C
 : -9% | 9%
COc1ccc(S(=O)(=O)N(C)C[C@H]2OCc3cnnn3CCCC(=O)N([C@H](C)CO)C[C@@H]2C)cc1
 : 4% | -1%
C[C@H]1CCC[C@]2(O[C@H](CCO)C[C@@H](O)[C@@H]2O)O1
 : 0% | 0%
COc1ccc(NC(=O)c2cc3cc(OC)ccc3oc2=O)cc1
 : 1% | -1%
COc1ccc(N2CCN(C(=O)c3ccc(Cl)c(S(=O)(=O)N4CCOCC4)c3)CC2)cc1
 : -3% | -10%
C=CCn1c(SCC(=O)N(CC)c2c(N)n(Cc3ccccc3)c(=O)[nH]c2=O)nnc1-c1ccccc1OC
 : -6% | 3%
COc1cccc(N2CCN(C(=O)c3ccc(Cl)c(S(=O)(=O)N4CCCCCC4)c3)CC2)c1
 : -17% | -2%
COC(=O)CNC(=O)C1Nc2ccc(OC(F)(F)F)cc2C2C=CCC12 (configuration not stated)
 : -9% | -9%
O=c1[nH]c(Nc2ccccc2)cc2cc(Br)ccc12
 : 7% | 3%
CC(C)c1cccc(-c2csc(C(C)(O)c3cccc(F)c3)n2)c1 (configuration not stated)
 : -25% | ?
O=C1c2ccccc2C(c2nnnn2-c2ccc3c(c2)OCCO3)N1Cc1ccc2c(c1)OCO2 (configuration not stated)
 : -4% | 6%
CC(=O)c1cccc(-c2ccc3c(c2)C(C)(Cc2ccccc2F)C(=O)N3)c1 (configuration not stated)
 : ? | 3%
CCCCCCn1c(=O)n2n(c1=O)[C@@H]1CN(S(=O)(=O)c3ccc(C)cc3)C[C@]1(O)[C@@H](OC(=O)NCC1CCCCC1)C2
 : ? | -4%
CCCNC(=O)c1cc2c(c(-c3cccc(-c4cc5ccccc5o4)c3)n1)[C@@H](CCO)N(C(=O)NC(C)C)C2
 : 0% | -7%
Cc1noc(C)c1S(=O)(=O)N(C)C[C@H]1OCc2cn(nn2)CCCC(=O)N([C@H](C)CO)C[C@@H]1C
 : -22% | -13%
Cc1ncc([N+](=O)[O-])n1CC(=O)Nc1ccccc1Cl
 : -18% | 20%
Cc1[nH]nc2c(=S)[nH]c(=O)[nH]c12
 : -22% | 4%
Cc1ccc(S(=O)(=O)N2CCC(=O)c3ccccc32)cc1
 : -14% | -6%

5 successive records from above, for reference:
Under each structure – 2A StopGo | RE007 growth inh
COc1ccc(NC(=O)c2cc3cc(OC)ccc3oc2=O)cc1
 : 1% | -1%
COc1ccc(N2CCN(C(=O)c3ccc(Cl)c(S(=O)(=O)N4CCOCC4)c3)CC2)cc1
 : -3% | -10%
C=CCn1c(SCC(=O)N(CC)c2c(N)n(Cc3ccccc3)c(=O)[nH]c2=O)nnc1-c1ccccc1OC
 : -6% | 3%
COc1cccc(N2CCN(C(=O)c3ccc(Cl)c(S(=O)(=O)N4CCCCCC4)c3)CC2)c1
 : -17% | -2%
COC(=O)CNC(=O)C1Nc2ccc(OC(F)(F)F)cc2C2C=CCC12 (configuration not stated)
 : -9% | -9%

(list continues)
Under each structure – 2A StopGo | RE007 growth inh
O=C(Cn1ccnc1[N+](=O)[O-])N(CCO)CCO
 : -10% | -23%
Cc1cccc(Oc2ccc(S(=O)(=O)N3CCCCC3)cc2NC(=O)C2=COCCO2)c1
 : -16% | -5%
Cc1ccc(C(NC(=O)C2CCN(CCOc3ccc(Cl)cc3)CC2)c2ccccn2)cc1 (configuration not stated)
 : -17% | 0%[18.4 µM]
CCC(c1nnnn1-c1c(C)cccc1C)N1CCN(C/C=C/c2ccccc2)CC1 (configuration not stated)
 : -15% | -14%
C=CS(=O)(=O)N(Cc1ccccc1)[C@H](CO)CC(C)C
 : -30% | -14%
c1ccc(COc2ncnc3c2ncn3CCCNCc2cccs2)cc1
 : 5% | -16%
NC(=O)NN=C1CCN2CCCc3cccc1c32
 : 6% | -15%
O=C(O)C1CCCN1c1nc(Cl)ccc1[N+](=O)[O-] (configuration not stated)
 : -10% | 6%
NC(=O)c1nc2c([nH]c1=O)CCCC2
 : -15% | 5%
COc1ccc(S(=O)(=O)N2CCC(C(=O)NCCc3ccc(OC)c(OC)c3)CC2)cc1
 : -18% | -12%
CN(C)c1ccc(/C=C2\c3ccccc3C(=O)N2c2ccccc2)cn1
 : 4% | -18%
O=C(NC1CCCCC1)C1c2ccccc2OCC(=O)N1Cc1cccnc1 (configuration not stated)
 : -7% | -11%
O=C1CC[C@@H](C(=O)N2CSC[C@@H]2C(=O)Nc2ccc(C(F)(F)F)cc2)N1
 : 13% | -2%
O=C(NCc1ccccc1)C(c1ccccc1)n1c(-c2ccccn2)nc2ccccc21 (configuration not stated)
 : 5% | -1%
COCCCNC(=O)C[C@@H]1C[C@@]2(C(=O)OC)CCCCC=C2N(Cc2cccc3ccccc23)C1=O
 : -17% | 10%
Cc1cc(-c2ccccc2)nc(Nc2nc3c(C)cccc3c(=O)[nH]2)n1
 : 9% | -3%
Nc1nc(N)c2c(n1)CN(Cc1ccc(Cl)cc1)C2
 : -7% | -4%
COc1ccc(NC(=O)C2(C)CCCN2C(=O)C(C)C)cc1OC (configuration not stated)
 : -33% | -6%
Cc1cc(F)ccc1-c1cc(C(=O)NCc2cccc(C(F)(F)F)c2)[nH]n1
 : -7% | 3%[18.4 µM]
COCCNc1nc(Oc2ccc(Cl)c(Cl)c2)c2sccc2n1
 : -21% | 25%
COc1ccc(-c2nc3c4ccccc4ccn3c2Cc2ccccc2C(F)(F)F)cc1OC
 : -4% | ?
C[C@@H]1CN([C@@H](C)CO)C(=O)CCCn2nncc2CO[C@@H]1CN(C)C(=O)C1CCCCC1
 : -8% | 8%
OC(c1ccccc1)c1ccccc1CN1CCCNC1=S (configuration not stated)
 : -11% | -11%
CCCCCc1c(-c2ccc(Cl)cc2)ncn1CCc1ccccc1OC
 : -1% | -24%
CN(C)C(=O)c1cccc(-c2cnc3c(NC=O)cc(-c4ccccc4F)cn23)c1
 : -5% | 5%[18.4 µM]
CCCC[C@@H]1C[C@H]1[C@@H](NC(=O)c1cccs1)c1ccc(C(F)(F)F)cc1
 : ? | -6%
COc1cccc(C(C(=O)NCc2ccccc2)N2CCN(C(=O)C3CCCO3)CC2)c1OC (configuration not stated)
 : 0% | -11%
O=C(NCc1cccnc1)OC1CC2CC1[C@H]1CCCCN1C2=O (some centres not stated)
 : -4% | -3%
COc1ccc(-c2csc(C(C)(NC(C)=O)c3ccc(OC)cc3)n2)cc1 (configuration not stated)
 : -28% | 9%
O=C(c1cccs1)N1C[C@@H](O)[C@H](n2cc(-c3ccc(F)cc3)nn2)C[C@@H]1c1ccccc1
 : -24% | 14%
C#CCOCCOCCOCCNc1nc(N2CCN(C(=O)[C@H](C)n3cc(CCC(=O)O)nn3)CC2)nc(N2CCN(C(=O)[C@H](C)n3cc(CCC(=O)O)nn3)CC2)n1
 : -14% | -4%
O=C(N=C1SC2CS(=O)(=O)CC2N1Cc1ccccc1)C1CC1 (configuration not stated)
 : 3% | 5%
C[C@@H](NC(=O)[C@@H]1CCCN1C(=O)[C@@H]1CCCN1)c1ccccc1
 : -19% | 2%
COc1ccc([C@H]2N[C@]3(CCCN(Cc4ccc(C(F)(F)F)cc4)C3=O)[C@H]3C(=O)N(Cc4ccccc4)C(=O)[C@@H]23)cc1
 : -28% | -3%
CC(C)[C@H](NC(=O)OC(C)(C)C)c1cc(C(=O)NCCc2c[nH]c3ccccc23)c(N)s1
 : -9% | ?
O=C1NC[C@@H](CCCCN2CCN(CCc3ccc(O)cc3)C(=O)C2=O)N(Cc2ccccc2)C1=O
 : 30% | 2%
CC1=C(C(=O)N2CCCCCC2)CC(CC(=O)NC2CCCCC2)C(=O)N1CCC1=CCCCC1 (configuration not stated)
 : -12% | -15%
CCc1nc2c(OCC(=O)C(C)(C)C)cccn2c1N(C)C(=O)c1ccccc1F
 : -13% | -8%
CC1(C)Cc2cccc(OCC(=O)OCC(=O)Nc3ccc(S(N)(=O)=O)cc3)c2O1
 : -21% | -7%
COC(=O)c1ccccc1COc1cccn2c(N(C)CC3CC3)c(C)nc12
 : -22% | ?
Cc1oc(-c2cccs2)nc1CNC[C@H]1O[C@@H](n2cnc(C(N)=O)n2)[C@H](O)[C@@H]1O
 : -8% | 7%
CCOC(=O)c1cc2ccccc2n1C1CCN(C)CC1
 : -23% | 3%
COc1ccc(CN(C)CCCn2cnc3c(SC)ncnc32)cc1OC
 : -6% | 0%
COc1ccc(C(C(=O)NC2CCCC2)n2c(CSCCOc3ccccc3)nc3ccccc32)cc1 (configuration not stated)
 : ? | -1%
O=C(O)C=Cc1c[nH]c2nccnc12
 : -9% | 7%
NC(=O)NC(CC(=O)OCC(=O)Nc1nnc(-c2ccccc2)o1)c1ccc(Cl)cc1 (configuration not stated)
 : -24% | 9%
CN(N=Nc1nc[nH]c1C(N)=O)C1CCCCC1
 : 17% | 6%
COC(=O)C[C@@H]1C[C@@H]2c3cc(NS(=O)(=O)c4ccc(F)cc4)ccc3O[C@@H]2[C@H](CO)O1
 : 27% | 11%
CC1ON=C(c2ccccn2)N(Cc2ccc(S(C)(=O)=O)cc2)C1=O (configuration not stated)
 : -12% | -4%[18.4 µM]
